NPYLR7 ag = agonists of mosquito NPYLR7 receptor, primary screen, cell-based, Aedes aegypti, calcium fluorescence, mosquito biting behavior | Aedes aegypti neuropeptide Y-like receptor 7 (NPYLR7) | HEK293T NPYLR7/Galpha15, GCaMP6s calcium fluorescence | activation, % at 10 µM | 270,000 compounds, 0.15% hits | AID 1259423, 2018; in the data active = activation above about 40%;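 note: 0% = vehicle and 100% = reference agonist at the receptor; some compounds past the cut are filed as inactive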
NPYLR7 ag max-min = further read-out of NPYLR7 ag, marked with its call; activation, %; measured here: Max-Min RFU normalised activation; some inactives read as strong as hits;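 span of the calcium signal over five minutes; 0% = vehicle and 100% = native peptide agonist; compound fluorescence can raise it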
* = called active by the depositor; & = joins results of further samples. The list is partial, so the mix of outcomes need not match the whole.

SMILES	NPYLR7 ag	NPYLR7 ag max-min
COCCCN(CC(=O)N(CCc1ccc(OC)c(OC)c1)Cc1sccc1C)C(=O)Nc1ccc(C#N)cc1	7	7
Cc1ccc(C=C2NC(=S)N(C3CCCCC3)C2=O)s1	2	-1
COC(=O)c1c(NC(C)c2cccc(OC)c2)c2cccc(Cl)c2[nH]c1=O (configuration not stated)	-13	-9
O=C(Nc1ccccc1C(F)(F)F)c1cc2ccccc2oc1=O	-1	2
COc1cccc(OCc2ccccc2)c1C(=O)NCC1CCCCC1	0	-11
COCCN(CC(=O)Nc1cc(-c2ccccc2)nn1-c1ccc(C)cc1)C(=O)c1ccc(Cl)cc1Cl	1	1
COC(=O)N1CCCC(C(=O)OC(c2nccn2C)C(F)(F)F)C1 (configuration not stated)	7	15
COC(=O)N(CCNC1CCC(O)CC1)c1ccccc1 (configuration not stated)	5	8
CC(=O)Nc1ccc2c(c1)NC(=O)CC2c1ccnc2ccccc12 (configuration not stated)	1	7
CC1(NC(=O)CCCn2cccn2)CCc2ccccc2C1 (configuration not stated)	-4&11	-4&4
Cc1ccc2ncnc(OCC(=O)Nc3cc(C)no3)c2c1	0	3
Cc1cc(Br)c(S(=O)(=O)n2nnc3ccccc32)cc1C	12	3
COC1(OC)N=C(N)C2(C#N)C(c3ccccc3)C12C#N (configuration not stated)	1	-1
CC(C)CC(=O)Nc1ccnn1C1CCN(C(=O)C2Cc3ccccc3O2)CC1 (configuration not stated)	2	0
COc1cc2c(cc1OC)C(c1ccccc1)N(C(=O)Nc1ccccc1C)CC2 (configuration not stated)	20	10
Cc1cnc2n(c1=O)C(CC(=O)NC(C)c1ccccc1)CS2 (configuration not stated)	0	-3
C/C(=N/NC(=O)[C@@H]1C(=O)NC[C@H]1c1ccccc1)c1cccc(Br)c1	37	32
Cc1ccc2oc(C(=O)N(C)Cc3cccc(-n4cccn4)c3)c(C)c2c1	18	8
CC(C)CN1N=C(c2ccccc2)Cn2c1nc1c2c(=O)n(C)c(=O)n1C	5	10
COc1ccc(N2CCN(C(=O)C3CCCCC3C(=O)NCCc3ccc(S(N)(=O)=O)cc3)CC2)cc1 (configuration not stated)	-5	-11
O=C(CCNS(=O)(=O)c1ccc(F)cc1)Nc1ccc(N2CCCCC2)cc1	0	-1
CN(Cc1cc(-c2ccncc2)no1)Cc1ccc(C2CCCCO2)s1 (configuration not stated)	4	3
CC(=O)Oc1ccc2c(c1)Oc1nc(C)[nH]c(=O)c1C2c1ccccc1 (configuration not stated)	9	12
Cc1cc(C(=O)NNC(=O)C(Oc2ccccc2Br)C(C)C)c(C)o1 (configuration not stated)	11	7
Cc1nn(C)c(C)c1S(=O)(=O)N1CCC(CO)(Cc2ccc(Cl)cc2)CC1	-6	-13
CN1CCOC(CNCC(O)COCc2ccccc2Cl)C1 (configuration not stated)	7	3
N#CC1(S(=O)(=O)c2ccc(Cl)cc2)CC1	-10	-19
Cc1ccc2c(c1)C(=O)NC1(CCN(C(=O)C(C)Cl)CC1)N2 (configuration not stated)	12	20
C=CCNC(=O)N[C@H]1CO[C@H]2[C@@H]1OC[C@@H]2Nc1nccc(-c2ccccc2OC)n1	-10	-16
CCOc1ccc(-c2nc(-c3ccc(S(=O)(=O)N4CCOCC4)cc3)cs2)cc1OC	4	10
O=C(CCN(CCCN1CCOCC1)c1nc(-c2ccccc2Cl)nc2ccccc12)Nc1ccc(F)cc1	5	20
CCOc1cccc(-c2cc(C(=O)O)c3[nH]c(-c4ccccc4)nc3n2)c1O	-1	-3
Cc1ccc(-c2nnc(SCC(=O)Nc3nc(C)c(C)s3)o2)cc1	10	6
CCN1CCN(c2cc(C)nc3c(-c4ccc(Cl)cc4)c(C(F)(F)F)nn23)CC1	0	-8
Cc1ccc(CNC(=O)Cn2c(CO)c[nH]c2=S)cc1	-3	-4
CCOC(=O)c1c(NC(=O)c2c(F)c(F)c(F)c(F)c2F)sc2c1CCC2	4	1
C=C(Cl)CN1CCC(NC(=O)c2ccoc2C)CC1	3&8	-1&8
COc1ccc(-n2nnc(C(=O)OCc3ccccc3Cl)c2C)cc1Cl	-8	-9
CC1=NC2=C(C(=O)CC(c3ccccc3)C2)C(c2ccccc2OCc2ccccc2)C1C(=O)OCc1ccccc1 (configuration not stated)	-7	-8
COc1cn(-c2ccccc2)nc1C(=O)NC1CCCC1	-4	-4
O=C(Nc1ccc2c(c1)CCC2)NC1C2COCC1CN(CC1CC1)C2 (configuration not stated)	25	15
CCCC(C)C1C2=C(CCCC2=O)OC(=N)C1C#N (configuration not stated)	-3	-4
Clc1snnc1CSc1nnc(-c2c[nH]c3ccccc23)n1C1CC1	-3	-1
COc1ccc2[nH]cc(C3CCN(S(=O)(=O)c4ccc(NC(C)=O)cc4)CC3)c2c1	14	27
Cc1ccc2nc(NC(=O)C3CCCCC3)sc2c1	6	7
C=CCCOC(=O)N1[C@@H](c2ccccc2)[C@@H](C(=O)NC)C[C@]12CCCCNC2=O	2	8
CCC(C)Nc1nc(NC)nc(Oc2ccc(C(=O)OCC(=O)OC)cc2)n1 (configuration not stated)	1	2
CC(C)(CCl)C(=O)N1CCC2(CC1)C(=O)N(CC(=O)N1CCCC1)CN2c1ccccc1	-4	7
Cc1ccc2cccc(OC(=O)c3cc([N+](=O)[O-])ccc3Br)c2n1	-3	-10
O=C(OCN1C(=O)c2ccccc2C1=O)c1cc2ccccc2o1	12	9
CCN1CCC(N(C)[C@@H]2CS(=O)(=O)C[C@H]2O)CC1	6	2
COc1cccc(CN(CC(O)COCc2ccco2)CC2CC(c3ccc(Cl)cc3)=NO2)c1 (configuration not stated)	-2	2
O=C1N(Cc2ccccc2F)CCCC12CCN(C1Cc3ccccc3C1)C2 (configuration not stated)	20	8
COCCN(Cc1ccc(OC)c(OS(=O)(=O)c2ccc(NC(C)=O)cc2)c1)C(=O)c1cccc(F)c1	8	17
CCOCCn1c(=O)c2c(nc3n2CC(C)CN3c2ccc(Br)cc2)n(C)c1=O (configuration not stated)	7	4
CC(Cc1cccs1)NC(=O)CCc1nnc(C2(c3ccc(Cl)cc3)CCC2)o1 (configuration not stated)	-3	-4
COc1cccc(CN(Cc2cccc(C(F)(F)F)c2)Cc2nc(C(=O)N3CCN(C)CC3)co2)c1	10	-1
COc1ccc(OC2CCN(C(=O)C3CC3)CC2)c(C(=O)NC2CCc3ccccc32)c1 (configuration not stated)	-1	-1
CCCCN(C)C(=O)c1sc(=O)n(Cc2cc(Cl)ccc2OC)c1C	7	3
COCCNC(=O)c1c(O)nc2scc(C)n2c1=O	6	4
(more compounds)
SMILES	NPYLR7 ag	NPYLR7 ag max-min
CCn1c(SCSc2nc3c(c(=O)n(C)c(=O)n3C)n2CC)nc2c1c(=O)n(C)c(=O)n2C	5	5
CCCNC(=O)C1CCC(Cn2c(=O)c3sccc3n(Cc3cccc(OC)c3)c2=O)CC1 (configuration not stated)	8	7
CC1(C)OCC(COC(=O)/C=C/c2ccc(F)cc2)O1 (configuration not stated)	1	-1
Cc1cc(C(=O)NC(C)C(=O)Nc2ccc(F)cc2C)n[nH]1 (configuration not stated)	11	12
CC(C)(C)C(=O)COC(=O)C(=Cc1cccs1)c1cccs1	1	-2
CCOC(=O)N1CCN(C(=O)c2ccc(N3CCC(NCc4cc(C)no4)CC3)cc2)CC1	0	-1
CCCCC(CC)C(=O)N1CCc2ccccc2C1c1ccc(Cl)cc1 (configuration not stated)	-1	2
CCOC(=O)C1(C)CCN1C(=O)COc1ccccc1 (configuration not stated)	5	4
CCc1c(C)c(C#N)c2nc3ccccc3n2c1NCCN1CCOCC1	-2	-4
CCCCCCCC(=O)Nc1c(-c2ccccc2F)nc2ccc(C)cn12	-1	4
O=C(Cn1nc2c(c1NC(=O)c1cccc(Cl)c1)CSC2)NCCc1ccccc1	-4	2
CCN(CC)S(=O)(=O)N1CCN(CCc2scnc2C)CC1	5	3
CCOC(=O)N1CCC2(CC1)OC(=O)C(C)=C2C(=O)NC(C)C	4	2
CCOC(=O)c1c(-c2ccc(Br)cc2)csc1N=Cc1nc(-c2ccccc2)oc1O	4	13
c1ccc(Oc2ccccc2-c2cnn3c(NCc4cccs4)ccnc23)cc1	-7	-10
CC1=C(C(=O)OCc2ccccc2)C(c2ccccc2[N+](=O)[O-])NC(=O)N1C (configuration not stated)	2	-3
Cc1ccsc1C(O)c1nnc(Nc2ccc3c(c2)OCO3)s1 (configuration not stated)	17	13
O=S(=O)(NCCc1csc2nc(-c3cccs3)nn12)c1ccc(F)cc1	0	0
CCOC(=O)c1c(N)sc2c1CCNC2	1	-1
CCc1ccc(CN(C)Cc2nc(Cc3ccc(OC)c(OC)c3)no2)nc1	20	7
COCCCn1c(SCc2cc(-c3ccccc3)on2)n[nH]c1=O	6	10
Cc1nn(Cc2ccccc2)c(C)c1[C@@H]1C=C[C@@H](NC(=O)N2CCOCC2)C1	-12	-16
CCOc1nn(CC)cc1C(=O)NC1=NCCS1	14	16
CCc1ccc(CN(CCS(N)(=O)=O)C2CC2)cc1	8	2
Cc1cc(C(=O)CSc2nnc(C3CC3)n2C2CC2)c(C)n1C1CCS(=O)(=O)C1 (configuration not stated)	5	8
NCCSc1c(-c2ccc(Cl)cc2)[nH]c2ccccc12	-9	-14
O=C(Nc1ccc(-c2ccn[nH]2)cc1)C1CCCN(C/C=C/c2ccccc2)C1 (configuration not stated)	7	-2
O=C(Nc1ccc(F)c(F)c1F)C1=NN(C2CCS(=O)(=O)C2)C(=O)CC1 (configuration not stated)	-4	2
CN=C1NN=C(c2ccc(C)cc2C)CS1	4	3
S=c1oc2ccc(Cl)cc2n1CN1CCCCCCC1	7	7
CCCC(=O)N1CCCN(c2nc(N)c3cc(OC)c(OC)cc3n2)CC1	-22	-32
O=C(NCc1ccccn1)c1ccc(Nc2c(Oc3ccccc3)cnn(-c3ccccc3Cl)c2=O)cc1	0	4
CN(C)c1cccc(C(NC(=O)/C=C\c2ccoc2)c2ccc(S(C)(=O)=O)cc2)c1 (configuration not stated)	-11	-14
CC(NC(=O)CN1CCN(CC(=O)N2CCCCC2)CC1)c1ccccc1 (configuration not stated)	-4	1
COCCOc1nc(-c2ccc(Cl)c(Cl)c2)n(-c2ccc(NC(=O)c3ccc(OC)cc3)cc2)n1	-2	-2
O=C(NC1CC1)C1CCCN(C2CCN(CCOc3ccccc3)CC2)C1 (configuration not stated)	0	-1
COc1cn(CC(=O)NCc2ccc(C)cc2)c(CSc2nncn2C)cc1=O	0	-9
CC(C)CCN(Cc1cccs1)CC(O)COc1ccccc1 (configuration not stated)	14	9
FC(F)(F)c1nnc2ccc(Nc3ccc(N4CCCC4)cc3)nn12	8	4
CSc1ccc(C2SCC(=O)N2c2ccccc2)cc1 (configuration not stated)	-5	-10
N#CCNC(=O)CNC(c1cccc(Cl)c1)c1ccccn1 (configuration not stated)	1	1
Cc1nc(C)c(CNC(=O)Cc2ccccc2Br)s1	-6	-7
Cc1c(Cl)cn2c(=O)cc(CNc3ccc(I)cc3)nc2c1Cl	24	11
COc1cc2c(cc1OC)C(CNC(=O)c1ccccc1Cl)N(Cc1ccc(F)cc1)CC2 (configuration not stated)	-1	-1
COc1c(C)cnc(CNC(=O)/C=C/c2c(Cl)nc3ccccn23)c1C	3	2
CN(CCN1CCOCC1)Cc1nc(-c2ccc(Cl)cc2)no1	-2	-4
Cc1ccc(NC(=O)c2cc(Cl)nc(Cl)n2)cc1S(=O)(=O)N1CCCCC1	9	5
COC(=O)c1cnc(NC(=O)c2cccc(S(=O)(=O)N3CCCCC3)c2)s1	-12	-11
COC(=O)C(=CC(C(=O)OC)C(=O)OC)C(=O)OC	-7	-11
C=CCNC(=O)N(CCOC)C1CCC2(CC1)C(=O)N(C)CCc1ccccc12 (configuration not stated)	15	5
COCCCN(Cc1ccc(C)cc1)C(=O)C1CC2(CCNCC2)CN1 (configuration not stated)	4	-1
CN(C(=O)/C=C/c1ccc(S(=O)(=O)NCc2ccco2)cc1)C1CCCCC1	1	1
Cc1cccc(CNC(=O)c2ccccc2NC(=O)C(C)N2CCCC2=O)c1 (configuration not stated)	2	3
